Bioassay records: PubChem BioAssay, Broad Institute
Ecoli rRNA inh = inhibits bacterial ribosomal RNA function over humanized ribosomes | E. coli WT GFP vs humanized-ribosome RFP mutants, fluorescence, 24 h; hits give low values; DMSO median 0, no signal -100 | GFP signal change (wild-type ribosome), % (test concentration not listed) | 350,000 compounds, 1.6% hits;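 active means significant combined selectivity score with lowered wild-type GFP, culture density cut under 30%, mutant RFP and density less affected; inactive means any of these conditions unmet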; further: one replicate is shown; some compounds called inactive have numbers as strong as hits
FGF22 binding = FGF22 (human) thermal shift binding; Q9HCT0; recombinant FGF22 thermal shift, SYPRO orange fluorescence; percent of sucrose octasulfate shift, DMSO zero; calls only at 9.99 µM; 340,000 compounds, 1.5% hits;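 active means melting point raised past a set limit in the mean and every replicate; three in four hits are not shown here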
Target sequence (Q9HCT0 whole entry, looked up): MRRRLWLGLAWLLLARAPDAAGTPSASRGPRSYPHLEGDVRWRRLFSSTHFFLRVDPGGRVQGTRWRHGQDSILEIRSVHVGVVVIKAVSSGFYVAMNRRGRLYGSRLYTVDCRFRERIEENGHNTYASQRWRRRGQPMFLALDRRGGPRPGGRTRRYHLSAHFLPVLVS
Ecoli rRNA inh OD600 = second read-out of Ecoli rRNA inh, no call of its own (marks repeat the call); OD600 change, %; measured here: OD600 growth;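 optical density of the mix in the first replicate; 0 = DMSO median and -100 = no signal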
Ecoli rRNA inh RFP = also measured in Ecoli rRNA inh; calls as there; RFP signal change, %; measured here: RFP humanized mutant strains;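 first replicate; 0 = DMSO median and -100 = no signal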
The depositor's hits bear a star; i = inactive. The list is partial; rates above refer to the full screens.

A first look (6 entries):
Value order: Ecoli rRNA inh, Ecoli rRNA inh OD600, Ecoli rRNA inh RFP, FGF22 binding
- C[C@@H]1CN([C@@H](C)CO)C(=O)c2cc(NC(=O)Cc3cn(C)c4ccccc34)ccc2O[C@H]1CN(C)CC1CCCCC1
→ 1, -9, 2.5, i
- C[C@@H]1CN([C@@H](C)CO)C(=O)c2cc(C#CC3CCCC3)cnc2O[C@H]1CN(C)C(=O)Nc1ccccc1
→ -3, -14, 1.9, i
- CO[C@H]1CN(C)C(=O)c2cc(NC(=O)Nc3ccc(F)cc3)ccc2OC[C@H](C)NC[C@@H]1C
→ -1, -3, -0.6, i
- O=S(=O)(Cc1ccccc1)N1CCCCN2[C@H](C1)[C@H](c1ccc(-c3cncnc3)cc1)[C@@H]2CO
→ 4, 1, 3.7, i
- CO[C@@H]1CN(C)C(=O)c2ccc(NS(=O)(=O)C3CCCCC3)cc2OC[C@@H](C)NC[C@@H]1C
→ 1, 5, -1.1, i
- COCC(=O)N1CC2(C1)[C@H](c1ccccc1)[C@H](CO)N2Cc1ccccc1OC
→ 4, 6, -1.8, i

Main list, previewed entries included:
Value order: Ecoli rRNA inh, Ecoli rRNA inh OD600, Ecoli rRNA inh RFP, FGF22 binding
- C[C@@H]1CN([C@@H](C)CO)C(=O)c2cc(NC(=O)Cc3cn(C)c4ccccc34)ccc2O[C@H]1CN(C)CC1CCCCC1
→ 1, -9, 2.5, i
- C[C@@H]1CN([C@@H](C)CO)C(=O)c2cc(C#CC3CCCC3)cnc2O[C@H]1CN(C)C(=O)Nc1ccccc1
→ -3, -14, 1.9, i
- CO[C@H]1CN(C)C(=O)c2cc(NC(=O)Nc3ccc(F)cc3)ccc2OC[C@H](C)NC[C@@H]1C
→ -1, -3, -0.6, i
- O=S(=O)(Cc1ccccc1)N1CCCCN2[C@H](C1)[C@H](c1ccc(-c3cncnc3)cc1)[C@@H]2CO
→ 4, 1, 3.7, i
- CO[C@@H]1CN(C)C(=O)c2ccc(NS(=O)(=O)C3CCCCC3)cc2OC[C@@H](C)NC[C@@H]1C
→ 1, 5, -1.1, i
- COCC(=O)N1CC2(C1)[C@H](c1ccccc1)[C@H](CO)N2Cc1ccccc1OC
→ 4, 6, -1.8, i
- C[C@@H]1CCCCO[C@@H](CN(C)C(=O)NC2CCCCC2)[C@@H](C)CN([C@H](C)CO)C(=O)c2cc(NS(=O)(=O)c3ccc(Cl)cc3)ccc2O1
→ 4, 1, -1.0, i
- CCCC(=O)N1CC2(C1)CN(CC1CC1)[C@@H](CO)c1[nH]c3cc(OC)ccc3c12
→ 1, 9, -1.4, i
- CCC(=O)N(C)C[C@H]1Oc2ncc(-c3ccccc3OC)cc2C(=O)N([C@H](C)CO)C[C@@H]1C
→ 2, 7, -2.4, i
- CO[C@@H]1CN(C)C(=O)c2cc(C#N)ccc2OCC[C@H]2CC[C@@H](OC)[C@@H](CN(C)C(=O)[C@H]1C)O2
→ 0, 3, 0.6, i
- CCC(=O)N[C@@H]1C=C[C@@H](CC(=O)NCc2ccc(OC)cc2)O[C@H]1CO
→ 5, 6, -2.4, i
- CCC(=O)N[C@@H]1CC[C@H](CC(=O)NCc2ccc(OC)cc2)O[C@H]1CO
→ 3, 2, 1.4, i
- C[C@H]1CN([C@@H](C)CO)C(=O)c2cc(-c3cncnc3)cnc2O[C@H]1CN(C)Cc1ccc(Oc2ccccc2)cc1
→ 2, 4, 0.9, i
- Cc1ccc(S(=O)(=O)N2C[C@@H](O)COC[C@@H]3O[C@H](CC(=O)NCc4ccc5c(c4)OCO5)CC[C@H]32)cc1
→ -4, 7, 2.6, i
- COc1ccc(S(=O)(=O)Nc2ccc3c(c2)CC(=O)N([C@@H](C)CO)C[C@@H](C)[C@H](CN(C)S(=O)(=O)c2c(C)noc2C)O3)cc1
→ -4, -9, 0.0, i
- CC(C)NC(=O)N(C)C[C@H]1OCCCC[C@@H](C)Oc2ccc(NS(=O)(=O)c3ccc(F)cc3)cc2C(=O)N([C@@H](C)CO)C[C@@H]1C
→ -1, -3, 3.0, i
- CC(=O)N1[C@@H](CO)[C@@H](c2ccccc2)[C@@H]1CN(C)C(=O)c1ccccc1F
→ 1, 8, 1.8, i
- CCCN1[C@@H]2c3ccc(C4=CCCC4)c(=O)n3C[C@@H]2[C@@H](CO)[C@@H]1C(=O)NCC
→ 1, 0, -2.0, i
- COc1cccc(-c2cnc3c(c2)C(=O)N([C@@H](C)CO)C[C@H](C)[C@@H](CN(C)Cc2ccc(C(=O)O)cc2)O3)c1
→ 6, 4, -0.1, i
- N#C[C@H]1[C@@H](c2ccc(C#CC3CC3)cc2)[C@H](CO)N1S(=O)(=O)c1ccccc1
→ 2, -3, 0.4, i
- O=C(C[C@H]1C[C@@H]2c3cc(NC(=O)C4CCC4)ccc3O[C@@H]2[C@@H](CO)O1)NCCN1CCCCC1
→ 4, 7, -1.6, i
- COc1cccc(S(=O)(=O)N[C@H]2CC[C@@H](CCNC(=O)Cc3ccncc3)O[C@@H]2CO)c1
→ 2, -2, 1.3, i
- N#C[C@H]1[C@@H](c2ccccc2)[C@H](CO)N1S(=O)(=O)c1cccc(F)c1
→ 3, 6, -0.7, i
- CCC(=O)N1C[C@@H](O)COC[C@H]2O[C@@H](CC(=O)NC)CC[C@@H]21
→ 3, 8, -4.4, i
- Cc1ccc(S(=O)(=O)N2C[C@H](O)COC[C@@H]3O[C@@H](CC(=O)N[C@H]4CCN(Cc5ccccc5)C4)CC[C@H]32)cc1
→ 1, -6, -2.8, i
- CC(C)NC(=O)N(C)C[C@@H]1Oc2cc(C#CC3CC3)ccc2S(=O)(=O)N([C@@H](C)CO)C[C@H]1C
→ -8, -25, -1.8, i
- CCC(=O)N1[C@H](CO)[C@H]2c3ccccc3N(C(=O)c3ccccc3F)C[C@H]21
→ -2, 1, -0.2, i
- CCOC(=O)C1=C(C(=O)OCC)C2N(Cc3ccc(C#N)cc3)c3ccccc3[C@@]23C[C@@H](C(=O)OC)N(S(=O)(=O)c2cccs2)C3=N1 (stereo partly drawn)
→ 12, 17, 0.2, i
- C[C@@H]1CN([C@@H](C)CO)C(=O)c2cc(NC(=O)CCCN(C)C)ccc2O[C@@H]1CN(C)S(=O)(=O)c1cccs1
→ 1, -1, -1.5, i
- C/C=C/c1ccc2c(c1)O[C@@H](CN(C)Cc1cncnc1)[C@H](C)CN([C@@H](C)CO)S2(=O)=O
→ -7, -9, -0.4, i
- Cc1ccc(C2c3c(-c4ccccc4)n[nH]c3C(=O)N2c2ccccc2)cc1 (stereo not drawn)
→ -23, -35, 0.6, i
- C[C@@H]1CN([C@@H](C)CO)C(=O)c2cc(NC(=O)C3CC3)ccc2O[C@H]1CN(C)Cc1ccc(Cl)c(Cl)c1
→ -4, -50, 7.2, i
- COc1ccc(NC(=O)Nc2ccc3c(c2)C(=O)N([C@@H](C)CO)C[C@@H](C)[C@H](CN(C)C(=O)NC(C)C)OCCCC[C@@H](C)O3)cc1
→ -2, -8, 0.6, i
- N#C[C@@H]1[C@@H](c2ccc(-c3cccc(F)c3)cc2)[C@@H](CO)N1C(=O)c1cccnc1
→ -2, 9, 1.7, i
- C[C@@H]1CN([C@H](C)CO)C(=O)c2cc(NS(=O)(=O)c3cccs3)ccc2O[C@@H](C)CCCCO[C@H]1CN(C)C(=O)C1CCCCC1
→ -2, -1, 0.1, i
- OC[C@H]1[C@H](c2ccc(-c3ccccc3F)cc2)[C@@H]2CN(Cc3cncnc3)CCCCN12
→ -6, 3, 2.6, i
- CC(C)NC(=O)N1[C@@H](CO)[C@@H]2c3ccccc3N(C(=O)Nc3ccccc3)C[C@@H]21
→ 3, 3, 0.3, i
- Cc1noc(C)c1S(=O)(=O)Nc1ccc2c(c1)C(=O)N([C@@H](C)CO)C[C@H](C)[C@@H](CN(C)C(=O)Nc1ccc3c(c1)OCO3)OCCCC[C@@H](C)O2
→ 2, -5, -2.3, i
- N#C[C@@H]1[C@H](c2ccccc2-c2ccccc2F)[C@@H](CO)N1C(=O)C1CCC1
→ -2, 9, 2.7, i
- O=C(Cc1ccncc1)N[C@@H]1CC[C@H](CCn2cc(-c3ccccc3F)nn2)O[C@@H]1CO
→ -3, -18, -1.0, i
- Cn1cnc(S(=O)(=O)N2CCCCN3[C@H](C2)[C@@H](c2ccc(-c4ccccc4F)cc2)[C@@H]3CO)c1
→ 3, -13, 2.1, i
- C[C@@H]1CN([C@@H](C)CO)C(=O)c2cc(NC(=O)CCCN(C)C)ccc2O[C@@H]1CN(C)CC1CCCCC1
→ 3, 0, -1.3, i
- CO[C@H]1CN(C)C(=O)c2ccc(NS(=O)(=O)c3ccccc3C)cc2OC[C@H](C)N(C)C[C@@H]1C
→ -1, 1, 1.5, i
- CN(C)C(=O)C[C@@H]1CC[C@H]2[C@@H](COC[C@@H](O)CN2Cc2ccc(C(F)(F)F)cc2)O1
→ 2, 7, -2.9, i
- COc1ccc(NC(=O)Nc2ccc3c(c2)C(=O)N([C@H](C)CO)C[C@H](C)[C@@H](CN(C)Cc2ccc(Cl)c(Cl)c2)O3)cc1
→ -1, -5, 2.4, i
- COc1ccc(S(=O)(=O)Nc2ccc3c(c2)C(=O)N([C@H](C)CO)C[C@@H](C)[C@H](CN(C)S(=O)(=O)c2ccc(F)cc2)O3)cc1
→ -1, -8, -0.3, i
- Cc1ccc(S(=O)(=O)N(C)C[C@H]2Oc3c(NC(=O)c4cnccn4)cccc3C(=O)N([C@H](C)CO)C[C@H]2C)cc1
→ -3, 5, 0.1, i
- C[C@@H]1CN([C@@H](C)CO)C(=O)c2cccc(NC(=O)Nc3ccc(F)cc3)c2O[C@H]1CN(C)C(=O)Nc1ccc(C(F)(F)F)cc1
→ -6, 2, 1.3, i
- COc1cccc(-c2ccc([C@@H]3[C@@H](CO)N4CCCCN(C(=O)NC(C)C)C[C@@H]34)cc2)c1
→ 0, -8, 16, i
- CO[C@H]1CN(C)C(=O)c2cc(NC(=O)c3cc(C)on3)ccc2OC[C@@H](C)NC[C@H]1C
→ 1, 2, -1.9, i

(cont.)
Value order: Ecoli rRNA inh, Ecoli rRNA inh OD600, Ecoli rRNA inh RFP, FGF22 binding
- COC(=O)C[C@H]1C[C@H]2c3cc(NC(=O)Nc4ccccc4F)ccc3O[C@H]2[C@@H](CO)O1
→ -6, -2, -0.1, i
- CNC[C@@H]1Oc2cc(C#Cc3cccc(F)c3)ccc2S(=O)(=O)N([C@@H](C)CO)C[C@H]1C
→ -2, -4, 5.2, i
- CN(C)CCCNC(=O)C[C@H]1CC[C@H]2[C@@H](COc3ccc(NC(=O)c4ccc5c(c4)OCO5)cc3C(=O)N2C)O1
→ 5, 7, -0.1, i
- CO[C@H]1CN(C)C(=O)c2cc(NC(=O)NC(C)C)ccc2OC[C@H](C)N(C)C[C@@H]1C
→ -3, 2, 0.0, i
- Cc1ccc(S(=O)(=O)N(C)C[C@@H]2Oc3ccc(NC(=O)Nc4cccc5ccccc45)cc3CC(=O)N([C@H](C)CO)C[C@@H]2C)cc1
→ 0, -2, 0.0, i
- COC(=O)C[C@H]1CC[C@@H]2[C@@H](COc3ccc(NC(=O)Nc4cccc(F)c4)cc3C(=O)N2C)O1
→ -12, -20, 6.7, i
- COc1cccc(C(=O)Nc2ccc3c(c2)C(=O)N(C)C[C@@H](OC)[C@@H](C)CN[C@@H](C)CO3)c1
→ 1, -4, -2.4, i
- CCC(=O)N1C[C@H](C)[C@@H](OC)CN(C)C(=O)c2ccc(NC(=O)c3ccc(F)cc3)cc2OC[C@@H]1C
→ 2, 7, -3.0, i
- O=C(Nc1ccccc1F)N1CCCCN2[C@H](C1)[C@@H](c1ccc(C3=CCCC3)cc1)[C@@H]2CO
→ -5, -34, 16, i
- C[C@H]1CN([C@@H](C)CO)C(=O)c2cc(-c3cccnc3)cnc2O[C@@H]1CN(C)C(=O)C1CCOCC1
→ 5, -4, -2.7, i
- CC(C)NC(=O)N(C)C[C@@H]1Oc2ccc(NS(=O)(=O)c3ccc(F)cc3)cc2C(=O)N([C@@H](C)CO)C[C@H]1C
→ 7, 1, -1.1, i
- C[C@H]1CN([C@@H](C)CO)C(=O)CCCn2nncc2CO[C@H]1CN(C)S(=O)(=O)c1cn(C)cn1
→ 2, -2, -0.5, i
- C[C@H]1CN([C@@H](C)CO)C(=O)c2cc(NC(=O)CCCN(C)C)ccc2O[C@H]1CN(C)C(=O)Nc1ccc2c(c1)OCO2
→ -5, 8, 1.9, i
- Cc1cc(Oc2cccnc2)ccc1NC(=O)Cc1c(C)[nH]c2ccccc12
→ -14, -27, 3.3, i
- C[C@H](CO)N1C[C@H](C)[C@H](CN(C)CC2CCCCC2)Oc2c(NS(=O)(=O)c3cccs3)cccc2C1=O
→ -2, -4, -1.6, i
- C[C@@H]1CN([C@H](C)CO)C(=O)c2cc(NC(=O)Nc3cccc4ccccc34)ccc2O[C@@H]1CN(C)Cc1ccncc1
→ -6, -13, 3.7, i

Given with values ahead of the structure: entries from further up
| Ecoli rRNA inh | Ecoli rRNA inh OD600 | Ecoli rRNA inh RFP | FGF22 binding | SMILES |
| --- | --- | --- | --- | --- |
| -2 | -4 | 5.2 | i | CNC[C@@H]1Oc2cc(C#Cc3cccc(F)c3)ccc2S(=O)(=O)N([C@@H](C)CO)C[C@H]1C |
| 5 | 7 | -0.1 | i | CN(C)CCCNC(=O)C[C@H]1CC[C@H]2[C@@H](COc3ccc(NC(=O)c4ccc5c(c4)OCO5)cc3C(=O)N2C)O1 |
